# Lassa entry inh – inhibitors of Lassa virus binding or cell entry; 300,000 compounds, 1.2% hits; Potency, µM (highest dose often 37.9 µM), for inactives: top-dose activity change, negative = inhibition, usual class: inhibitors; AID 540256; Lassa virus pseudotype entry inhibition, cell reporter; control for the full effect not named in the record; active means well fitted inhibition curve with a large enough effect; inconclusive means small, poorly fitted or top-dose-only effect, or effect the other way; inactive means flat fitted curve, though single readings scatter; tested in HEK293 cells; note: % is set by controls: 0 for no effect and ±100 for the full control effect; nearly all actives have a fitted effect of over 50% in size; luciferase read-out
# SARS PLP yeast – SARS-CoV PLP inhibition in yeast; 330,000 compounds, 0.19% hits; S. cerevisiae expressing SARS-CoV PLpro, growth rescue; control for the full effect not named in the record; Potency, µM (highest dose often 32.9 µM), inactives show at the highest dose activity, positive = growth rescue; note: 0% is about no effect; nearly all actives have a fitted effect of over 55% in size; growth read by luminescence after 48 h
# RE007 growth inh – less growth of the S. pombe RE007 Vpr strain. S. pombe RE007 Vpr strain, BacTiter-Glo ATP luminescence, 24 h; control for the full effect not named in the record. Potency, µM (doses to about 92.2 µM), for the others: top-dose activity change, negative = less growth. 360,000 compounds, 0.21% hits. AID 651644; active = well fitted falling curve with a large enough effect; inconclusive = small, poorly fitted or top-dose-only effect; inactive = no such curve, though single readings can be large or run the other way;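 note: % is set by controls: 0 for no effect and ±100 for the full control effect; nearly all actives have a fitted effect of over 50% in size; the assay follows cell death caused by Vpr and the record does not say whether a fall means rescue or toxicity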
#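 Fission yeast strain RE007, carrying one chromosomally integrated HIV-1 vpr copy, was seeded at OD 0.01 in PMG+AL medium with 23 nL pinned compound. After 24 h at 30 °C and 99% humidity, viability was read by BacTiter-Glo luminescence.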
# Cruzain noTriton – inhibitors of Trypanosoma cruzi cruzain without detergent; 200,000 compounds, 2.3% hits; Potency, µM, inactives show max response, negative = inhibition, most hits filed as inhibitors; AID 1476; purified cruzain, Z-FR-AMC fluorescence, no detergent; active = well fitted curve in the direction sought with a large enough effect; inconclusive = small, poorly fitted or top-dose-only effect, or another doubt; inactive = no such curve, though single readings can be large; an effect the other way counts as inactive or inconclusive;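 note: plate controls were enzyme without inhibitor for no effect and buffer without enzyme for full effect; nearly all actives have a fitted effect of over 40% in size; top concentration of the series not given in the record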
# Target sequence (P25779 123-467 limits assumed): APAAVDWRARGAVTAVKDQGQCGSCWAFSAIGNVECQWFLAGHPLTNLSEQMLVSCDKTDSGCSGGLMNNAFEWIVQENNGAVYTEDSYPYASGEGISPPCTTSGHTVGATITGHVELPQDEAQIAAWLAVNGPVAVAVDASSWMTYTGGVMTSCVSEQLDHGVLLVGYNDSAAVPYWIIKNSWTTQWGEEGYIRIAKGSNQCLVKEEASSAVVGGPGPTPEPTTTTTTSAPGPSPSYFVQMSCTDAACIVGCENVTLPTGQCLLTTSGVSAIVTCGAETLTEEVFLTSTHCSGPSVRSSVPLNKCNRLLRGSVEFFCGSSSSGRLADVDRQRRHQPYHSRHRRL
#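 Detergent-free condition (0.00005% Triton X-100) in acetate buffer pH 5.5 with DTT. 1.5 nM enzyme and compound were pre-mixed 15 min, then 2 uM Z-FR-AMC substrate added; reaction progress from fluorescence change between first and third reads (60 s).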
# Marburg entry inh – inhibitors of Marburg virus binding or cell entry; Marburg virus pseudotyped entry inhibition, cell reporter; control for the full effect not named in the record; about a third of the inactives were read at about 46 µM; Potency, µM (series often up to 37.8 µM), for inactives: at the highest dose activity change, negative = inhibition, hits mostly inhibitors; 300,000 compounds, 1.8% hits; active = well fitted inhibition curve with a large enough effect; inconclusive = small, poorly fitted or top-dose-only effect, or effect the other way; inactive = flat fitted curve, though single readings scatter; tested in HEK293 cells; about a fifth of its hits are not listed in these tables; note: % is set by controls: 0 for no effect and ±100 for the full control effect; luciferase read-out
# NS1 function inh – blocks influenza NS1 protein function. 270,000 compounds, 0.4% hits. S. cerevisiae slowed by influenza A NS1, growth recovery by OD600. AID 2326. Potency, µM (series often up to 46.1 µM), for inactives: at the highest dose activity, positive = more growth; note: actives are rising curves; nearly all actives have a fitted effect of over 50% in size
#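 Compounds were scored for reversing the slow growth caused by influenza A NS1 in S. cerevisiae, measured by optical density at 600 nm. Assay medium contained 2% galactose at pH 6.0; NS1-free yeast of the same strain were the positive control.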
# StopGo reporter – FMDV 2A StopGo reporter, luciferase signal. 410,000 compounds, 1.2% hits. Potency, µM (doses to about 57.9 µM), for inactives: top-dose signal change, negative = less light. AID 1159524. human cells with a luciferase reporter of 2A StopGo recoding; control for the full effect not named in the record; active = well fitted falling curve with a large enough effect; inconclusive = small, poorly fitted or top-dose-only effect; inactive = no such curve, though single readings can be large or run the other way; tested in HEK293T cells; note: % is set by controls: 0 for no effect and ±100 for the full control effect; nearly all actives have a fitted effect of over 45% in size; luciferase light after 4 h
# Cruzain inh Det – cruzain (T. cruzi) inhibition with detergent. purified cruzain, Z-FR-AMC fluorescence, 0.01% Triton. P25779. AID 1478. 200,000 compounds, 0.43% hits. Potency, µM, inactives show max response, negative = inhibition, actives largely listed as inhibitors; active = well fitted curve in the direction sought with a large enough effect; inconclusive = small, poorly fitted or top-dose-only effect, or another doubt; inactive = no such curve, though single readings can be large; an effect the other way counts as inactive or inconclusive;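 note: plate controls were neutral wells for no effect and buffer without enzyme for full effect; nearly all actives have a fitted effect of over 40% in size; top concentration of the series not given in the record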
#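 Read-out: AMC fluorescence (360 nm excitation, 450 nm emission), four reads over 2 min, first-to-third difference used. Conditions: cruzain 1.5 nM, Z-FR-AMC 2 uM, pH 5.5 acetate, 5 mM DTT, 0.01% Triton X-100.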
# Active calls of the source: *; u = inconclusive; x = not tested or not shown; [ ] = dose if it differs, or a comment. Unless noted, calls come from the whole dose curve; as a rule, active means well fitted rising curve with a large enough effect; inconclusive means small, poorly fitted or top-dose-only effect; inactive means no such curve, though single readings can be large or run the other way. Potency is the fitted concentration of half-maximal effect.
SMILES,Lassa entry inh,SARS PLP yeast,RE007 growth inh,Cruzain noTriton,Marburg entry inh,NS1 function inh,StopGo reporter,Cruzain inh Det
CC1C(=O)NN=C1C(=O)N/N=C\C(Br)=C\c1ccccc1 (stereo not given),-10%[46.1 µM],-3%,-4%,x,u,x,7%,x
Cc1ccc(C(=O)CC(=O)c2cc(Cl)ccc2O)cc1,-73%,-21%,u,1%,u,-135%,74%[activator],-4.6%
COC(=O)C1=C(C)N(c2ccccc2)/C(=C/c2ccco2)C1=O,-1%,2%,2%,x,16%[46.1 µM],2%,-12%,x
Cc1nnc(C)n1/N=C/c1ccc(-c2ccccc2Cl)o1,2%,-8%,-7%,x,-1%[46.1 µM],-9%,15%,x
Cc1onc(-c2c(F)cccc2Cl)c1C(=O)N(C)CCc1ccccn1,-16%,1%,-10%,x,26%,-5%,-21%,x
Cc1ccc(NC(=O)C(C)OC(=O)CCNS(=O)(=O)c2ccc(C)cc2)cc1 (stereo not given),21%,17%,1%,0%,10%,-10%,-27%,-3.5%
CCOc1ccc(C(=O)NCC(=O)OCC(=O)N2CCC(C)CC2)cc1,8%,17%,-9%,-14%,23%,-2%,16%,-17%
CCC1=C(OC(=O)N(CC)CC)N2C(=O)OC(=NCC(=O)OC)[C@]2(C)[C@H]2C1=CC[C@H]1C(=O)N(CC(=O)OC)C(=O)[C@H]12,x,3%,-12%,u,x,-5%,1%,2.0%
COC(CNC(=O)c1cc(Sc2nnc(C)s2)nc2ccccc12)OC,-5%,-17%,-6%,4%,u,1%,-14%,-3.4%
CCC(=O)Nc1sc(C(=O)OC)c(C)c1C(=O)OC,6%,11%,-4%,8%,-1%,-1%,x,-0.4%
Fc1cc(F)c2nc(N3CCOCC3)sc2c1,u,-4%,-8%,0%,26%,-2%,52%[activator],-4.7%
CCN(CC)S(=O)(=O)c1ccc(S(=O)(=O)N2CCCC2C(=O)O)cc1 (stereo not given),-11%,22µM*,-2%,5%,2%,-2%,6%,7.7%
CCCCNS(=O)(=O)c1ccc(Br)cc1N1CCC[C@H]1CO,x,0%,11%,x,-3%,x,54%[activator],x
Cc1ccc(N2CCN(c3ccc(C)cc3)C(CC(=O)O)C2=O)cc1 (stereo not given),0%,-1%,6%,u,16%,16%,-5%,-3.3%
COc1ccc(NC(=O)c2cc(C)no2)cc1Cl,2%[46.1 µM],-1%,-13%,x,6%[46.1 µM],-3%,21%,x
O=C(O)C1OC2OC3(CCCCC3)OC2C2OC3(CCCCC3)OC12 (stereo not given),8%,-16%,1%,10%,11%,3%,0%,7.8%
CCN(CC)CCOc1ccc2c(c1)C(=NO)c1cc(OCCN(CC)CC)ccc1-2,10µM*,1%,-4%,-9%,2.6µM*,-16%,x,-9.0%
CCOc1ccccc1NC(=O)CN(C)S(=O)(=O)c1ccc(C(=O)N2CCOCC2)s1,-2%[46.1 µM],x,x,u,x,x,-18%,0.7%
S=c1sc(SCCOc2ccccc2)nn1-c1ccccc1,2%,-15%,8%,2%,2%,-6%,0%,-3.9%
CCNc1nc(NCC)nc(N/N=C/c2cc(OC)c(OC)c(OC)c2)n1,x,2%,4%,x,x,-5%,u,x
CCN(CC)C(=O)Oc1c(Cl)cc(Cl)c2cccnc12,-16%[46.1 µM],0%,1%,x,u,-2%,-15%,x
CCOc1ccc(CNC(=O)CCCOc2cc(=O)n(C)c3ccccc23)cc1,-4%,8%,-6%,2%,12%,-1%,29%,5.6%
CCC(=O)NCCc1nc2cc(NC(=O)COc3ccccc3)ccc2n1C,29%,6%,7%,x,5%[46.1 µM],7%,22%,x
CCOc1ccc(NC(=O)N2CCC(n3c(C)nc4cccnc43)CC2)cc1,3%[46.1 µM],x,x,7%,x,x,2%,1.2%
Cc1cc(CNC(=O)COC(=O)c2ccc(Cl)c(N)c2)cc(C)c1O,15%,3%,9%,x,-9%[46.1 µM],x,-7%,x
O=C(c1cccc([N+](=O)[O-])c1)C12CN3CN(CN(C3)C1)C2,x,0%,-12%,x,27%[46.1 µM],x,13%,x
O=[N+]([O-])c1ccc(N2CCOCC2)c([N+](=O)[O-])c1,15%[46.1 µM],x,-24%,x,1%[46.1 µM],x,8%,x
Cc1cccc(C=Nc2ccc3c4c(cccc24)CC3)c1O,2%,u,0%,4%,u,28%,12%,-1.6%
CC(NS(=O)(=O)c1ccc2c(c1)oc(=O)n2C)c1ccccc1 (stereo not given),x,1%,3%,x,x,1%,-5%,x
O=C(Nc1ccc(Cl)cc1)c1csc(-c2ccncc2)n1,u,-4%,-7%,x,u,-8%,-23%,x
CN(C)CCCNC(=O)c1cc(C(=O)C2CCCCC2)c[nH]1,-12%[46.1 µM],1%,-11%,x,u,x,-15%,x
COc1ccc(Cn2c(SCc3cc(C)ccc3C)nc3cc(OC)c(OC)cc3c2=N)cc1,6.5µM*,5%,6%[3.69 µM],u,4.6µM*,-30%,u,u
CCN1C(=O)N(C)[C@@H](c2ccccc2)C(C(=O)OC)=C1C,x,-6%,8%,x,u,-1%,-21%,x
CCCCC(=O)NC1(C(F)(F)F)NC(=O)N(C)C1=O (stereo not given),x,-1%,2%,x,x,-2%,12%,x
Cc1ccc(CNC(=O)C(C)n2c(=O)cc(-c3ccccc3)c3c(C)nn(C)c32)cc1 (stereo not given),-6%[46.1 µM],x,x,0%,x,x,-21%,-4.6%
O=C(CCNc1cc(Cl)cc(Cl)c1)c1cccs1,u,-27%,-24%,-6%,-13%,-77%,x,-5.7%
CC(=O)Nc1sc(NC(=O)c2ccccc2)nc1-c1cccs1,25%,-5%,1%,-5%,-7%,-8%,x,0.2%
COc1ccc(N2CC(=O)N(c3ccccc3)C2=S)cc1,-4%,18%,x,10%,10%,1%,26%,2.8%
Cc1sc2nc(C)n(/N=C/c3ccccc3O)c(=O)c2c1C,8%,6%,4%,15%,-6%,-2%,14%,-4.3%
Cc1ccccc1C(=O)Nc1cccc(C(=O)OCc2cc(=O)n3ccsc3n2)c1,-6%[46.1 µM],x,x,5%,x,x,21%,0.9%

# Among those listed so far, 2 have bromine.
SMILES,Lassa entry inh,SARS PLP yeast,RE007 growth inh,Cruzain noTriton,Marburg entry inh,NS1 function inh,StopGo reporter,Cruzain inh Det
CC1C(=O)NN=C1C(=O)N/N=C\C(Br)=C\c1ccccc1 (stereo not given),-10%[46.1 µM],-3%,-4%,x,u,x,7%,x
CCCCNS(=O)(=O)c1ccc(Br)cc1N1CCC[C@H]1CO,x,0%,11%,x,-3%,x,54%[activator],x

# Quoted at random: 2 records from the list
SMILES,Lassa entry inh,SARS PLP yeast,RE007 growth inh,Cruzain noTriton,Marburg entry inh,NS1 function inh,StopGo reporter,Cruzain inh Det
Cc1cccc(C=Nc2ccc3c4c(cccc24)CC3)c1O,2%,u,0%,4%,u,28%,12%,-1.6%
O=C(c1cccc([N+](=O)[O-])c1)C12CN3CN(CN(C3)C1)C2,x,0%,-12%,x,27%[46.1 µM],x,13%,x

# Following part.
SMILES,Lassa entry inh,SARS PLP yeast,RE007 growth inh,Cruzain noTriton,Marburg entry inh,NS1 function inh,StopGo reporter,Cruzain inh Det
COc1ccc(N2CCCC2)c(NC(=O)COc2ccccc2Cl)c1,x,5%,2%,x,u,9%,u,x
CN(C)CC(O)COC(c1ccccc1)c1ccccc1 (stereo not given),2%,-1%,8%,x,u,x,-23%,x
CC1CCC(C(=O)NC(C(=O)NCCc2ccc(S(N)(=O)=O)cc2)C(C)C)CC1 (stereo not given),x,0%,-5%,x,x,0%,-18%,x
O=[N+]([O-])c1ccc(C(O)CNC(=S)Nc2ccccc2)cc1 (stereo not given),-30%,-3%,-3%,x,u,1%,0%,x
Cc1ccc(NC(=O)CCSCCC(=O)Nc2ccc(C)c(C)c2)cc1C,-3%,0%,-11%,-6%,-26%[46.1 µM],4%,17%,-7.0%
COc1ccc(-c2nc(C#N)c(N3CCOCC3)o2)cc1OC,-3%,-6%,-8%,u,u,-20%,-8%,-20%
O=C(COc1cccc2cccnc12)N/N=C/c1cccn1-c1ccc(F)cc1,u,-3%,-3%,x,u,-4%,u,x
Cc1cccc2c(=O)cc(CSc3ccccc3NC(=O)C(C)(C)C)[nH]c12,13%[46.1 µM],x,x,-29%,x,x,0%,-3.2%
COC(=O)CN(c1cc(Cl)ccc1OC)S(=O)(=O)c1ccc(C)cc1,-15%,1%,1%,x,u,-9%,60%[activator],x
COc1ccc(N2CCN(CCCNC(=O)Cn3c(=O)c4cccn4c4cccnc43)CC2)cc1,x,-4%,4%,x,x,4%,-5%,x
Cc1nn(-c2ccccc2)c(C)c1CCC(=O)O,u,-8%,-1%,-2%,u,2%,56%[activator],7.9%
CCCCOc1ccc(/C=N/Nc2cc(N3CCOCC3)nc(C)n2)cc1,x,1%,-7%,x,x,u,u,x
CCCc1cc(=O)n2c([nH]c3ccccc32)c1C#N,u,-19%,-17%,u,-24%,-63%,x,1.1%
Cc1ccc(CSc2nnc(-c3ccc(NS(=O)(=O)c4ccccc4)cc3)o2)cc1,-16%,u,19%,u,-26%,12%,10%,-4.0%
O=C(NNC(=O)C1CCN(c2ncccn2)CC1)c1ccncc1,4%,0%,13%,x,9%,1%,-16%,x
CCOC(=O)Nc1csnn1,-1%[46.1 µM],1%,0%,x,7%[46.1 µM],-3%,-1%,x
CC(=O)N[C@H]1C[C@@H]1c1ccccc1,-1%,0%,-3%,-4%,u,-1%,0%,2.0%
O=C(NC1CCN(Cc2ccccc2)CC1)c1ccc2c(c1)[nH]c(=O)n2Cc1ccc(F)cc1,u,0%,-5%,x,2.8µM*,0%,u,x
CCN(CC)S(=O)(=O)c1ccc2c(c1)c(=O)c(C(=O)NCc1ccc(Cl)cc1)cn2C,u,x,x,-19%,11%[46.1 µM],x,-10%,-3.2%
Cn1c(SCC(=O)NCc2cccs2)nnc1-c1ccc(O)cc1,u,-1%,25%,x,-1%[46.1 µM],10%,-1%,x
Cc1cnc(C(=O)OCC(=O)Nc2ccccc2[N+](=O)[O-])cn1,-4%[46.1 µM],-3%,1%,x,24%[46.1 µM],x,-1%,x
